AID504770: growth inhibition of E. coli YBA685, primary screen, V. cholerae RctB inhibitors; E. coli YBA685 rctB-dependent plasmid, OD600 growth, 3 h; hits give low values; z-score (concentration not given with the values); 130,000 compounds, 0.27% hits;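 active = z-score under -2 on both plates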;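 note: wells of about 30 µL received 100 nL stock; score is relative to mean and SD of the test wells; the first replicate is given; strong numbers were not always called active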
Ba CapD inh: Bacillus anthracis CapD inhibitors, primary screen, biochemical, fluorescence intensity; 140,000 compounds, 0.23% hits; CapD gamma-glutamyltranspeptidase (Bacillus anthracis Ames Ancestor); AID 492967, 2010; purified CapD enzyme, fluorescence intensity read-out; hits give low values; some hits fall short of the stated cut; z-score (test concentration not listed);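 active = z-score under -4 in either of two replicates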;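 note: stock transfer was 100 nL into about 40 µL; score is relative to mean and spread of the plate; one replicate is shown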
The depositor's hits bear a star; / = no result given.

SMILES	AID504770	Ba CapD inh
Cc1ccc(S(=O)(=O)Oc2ccc3ccccc3c2/C=N/NC(=O)CC(=O)N/N=C/c2c(OS(=O)(=O)c3ccc(C)cc3)ccc3ccccc23)cc1	/	-0.3
O=C(NC1CCCC1)N(Cc1ccc2c(c1)OCO2)C1CCN(Cc2ccccc2)CC1	0.75	0.29
CC(C)OC(=O)Nc1cnccc1C(F)(F)F	-0.45	0.39
O=C(OCc1cn(-c2ccc(Cl)cc2)nn1)c1ccc(Cl)cc1Cl	/	-0.45
CC1CCc2sc(C(=O)NN)cc2C1 (configuration not stated)	-0.85	/
CCOc1ccccc1CNS(=O)(=O)c1ccc(C)c(Cl)c1	/	-0.72
O=C(c1ccc(F)cc1)C1CCN(S(=O)(=O)c2cc(C(F)(F)F)cc(C(F)(F)F)c2)CC1	/	0.15
CCn1cc(NC(=O)NC2CCc3ccccc32)c(=O)c2ccc(C)nc21 (configuration not stated)	-0.85	2.6
CC(=O)Nc1ccc(N=Nc2ccc(O)cc2)cc1	-1	/
COCCn1c(=S)[nH]c2cc(C(=O)NCCc3c[nH]c4ccccc34)ccc2c1=O	/	0.09
CCOC(=O)c1cccc(NC(=O)c2ccc3c(c2)C(=O)N(Cc2ccco2)C3=O)c1	1.2	-0.3
CCN(CC)CCNc1ccc2nnc(CCNC(=O)c3ccc(C)cc3)n2n1	-0.2	-0.015
CN(C)CCCNc1nn2c(=O)c3ccccc3nc2c2ccccc12	-0.05	/
O=C(Nc1ccccc1N1CCOCC1)c1cccc(N2C(=O)c3ccccc3C2=O)c1	-1.5	/
O=C(O)CSCCc1ccccn1	-0.4	/
C=CCn1c(COc2cccc3ccc(C)nc23)nnc1SC	0.85	0.89
C[n+]1cc(-c2ccc3ccccc3n2)cc2ccccc21	-0.85	-0.22
NC(=O)c1cc[n+](CC(=O)N2CCCCCC2)cc1	-1.2	-0.03
Cc1ccc(Nc2nc(Cl)nc(N(C)C#N)n2)cc1	0.9	/
O=C(O)CN(CCN(CC(=O)O)CC(=O)O)CCN(CC(=O)O)CC(=O)O	/	-0.29
CCN(CC)S(=O)(=O)c1ccc(Nc2nc3ccc(Cl)cc3n3cnnc23)cc1	-0.2	2.4
O=C(NC1CCCCCC1)c1cccc2c1C(=O)N(C1CCCCC1)C2	0.15	-0.99
CC(C)OC(=O)c1ccc(COC(=O)CCc2nc3ccccc3[nH]c2=O)cc1	0.1	1.1
Cc1ccsc1/C=C1\Sc2ccccc2C1=O	/	-1.2
CCOC(=O)C1=C(C)NC2=C(C(=O)C(C(=O)OCC)C(c3ccccc3OC)C2)C1c1ccc(Cl)cc1 (configuration not stated)	/	4.6
CCOc1cc(C2C3=C(CCCC3=O)OC3=C2C(=O)CCC3)cc(Br)c1O	/	0.43
COc1ccccc1NC(=S)N1CC(C)OC(C)C1 (configuration not stated)	/	0.79
COc1ccc(-c2noc(-c3ccccc3)n2)cc1	-1.2	1.3
CC(C)N(C(=O)Cn1c(-c2ccco2)nc2ccccc21)c1ccccc1	0.5	2.9
COc1cc(C2C(C(=O)Nc3ccccc3)=C(C)Nc3nnnn32)ccc1OCc1ccccc1 (configuration not stated)	/	0.23
Cc1nc2ccc(NS(=O)(=O)c3ccc(F)c(Cl)c3)cc2o1	-0.05	-0.4
O=C(OCc1nc2ccccc2s1)c1ccc(S(=O)(=O)N2CCCC2)cc1	-0.75	/
O=C(C1CC1)N1c2ccccc2Sc2ccccc21	-0.35	/
COC(=O)c1cc(Cl)c(NC(=O)C(C)C)cc1OC	-0.5	/
COC(=O)c1ccccc1NC(=O)COC(=O)c1ccn(C)n1	-0.95	0.02
CC(C)N(C(=O)c1cnc2n(c1=O)CCS2)C(C)C	-0.15	/
O=S(=O)(NC1c2ccccc2Oc2ccccc21)c1ccc2ccccc2c1	-0.95	5.5
Cc1nc2ccccn2c1C(=O)OCC#N	-1.3	/
CCOc1ccc(N(CC(=O)NC2CCCC2)S(=O)(=O)c2c(C)noc2C)cc1	-0.15	-0.12
O=C(c1ccc(C(F)(F)F)cc1)n1ccc(-c2cccs2)n1	-1	-1.5
O=C(CN(C(=O)c1ccc(Cl)nc1)c1ccccc1)NCC1CCCO1 (configuration not stated)	0.35	/
COc1ccc(COCC(O)CN2CCN(c3ccc(C(F)(F)F)cn3)CC2)cc1 (configuration not stated)	1.3	1.2
Cc1cccc(C)c1N1C(=O)CSC1=O	0.05	-0.39
COc1ccc2c(c1)CCc1c(C(=O)Nc3cnn(Cc4ccc(F)cc4)c3)noc1-2	-0.05	0.05
Cc1ccc(/C(O)=C2\C(=N)N(c3ccccc3)C3=C(C(=O)CCC3)C2c2ccc([N+](=O)[O-])cc2)cc1 (configuration not stated)	/	-0.31
NC(N)=NC(N)=Nc1ccc(F)c(Cl)c1	/	0.36
Cc1nn(-c2ccccc2)c(Cl)c1C(=O)OCC(N)=O	-1.1	/
Cc1cc(NC(=O)CSc2nc3c(c(=O)n2-c2ccc(F)cc2)SCC3)no1	/	-2.1
CN(c1ccccc1)S(=O)(=O)c1cc(C(=O)NCCCN2CCOCC2)ccc1Cl	-0.2	/
CC1CCC(OC(=O)CCC(=O)Nc2ccc(Br)cc2)CC1 (configuration not stated)	0.15	0.44
Cc1cc(C(=O)COc2cccc3c2OC(C)(C)C3)c(C)n1C1CC1	-1.2	/
C=CCSc1nc(Nc2ccc(Cl)cc2)c2cnc(N3CCOCC3)nc2n1	-1.1	0.84
COc1ccc(NC2=Nc3ccccc3CC2)cc1	-0.6	-0.095
CCCCC1NC(C(=O)O)CS1 (configuration not stated)	-0.2	0.72
Clc1ccccc1CNC12CN3CN(CN(C3)C1)C2	-0.05	/
COc1cccc(N=CC23c4ccccc4C(c4ccccc42)C2C(=O)N(c4ccccc4)C(=O)C23)c1 (configuration not stated)	/	-0.06
O=C(O)/C=C\C(=O)N1CCN(c2nc(-c3ccccc3)c3cc([N+](=O)[O-])ccc3n2)CC1	/	-2.1
N#CCCn1cc(C#N)c(-c2ccccc2)n1	-1.3	0.055
CN(CCc1ccccn1)Cc1ccccn1	0.05	0.53
O=C(C1CCCO1)N1CCNCC1 (configuration not stated)	-0.1	/

Reprinted from the part before: four compounds; new compounds follow.
SMILES	AID504770	Ba CapD inh
O=C(O)/C=C\C(=O)N1CCN(c2nc(-c3ccccc3)c3cc([N+](=O)[O-])ccc3n2)CC1	/	-2.1
N#CCCn1cc(C#N)c(-c2ccccc2)n1	-1.3	0.055
CN(CCc1ccccn1)Cc1ccccn1	0.05	0.53
O=C(C1CCCO1)N1CCNCC1 (configuration not stated)	-0.1	/
CN(C)/C=C1\Cc2ccccc2C1=O	/	6.4
Cc1nn(CCCC(=O)NCCC2=CCCCC2)c(=O)c2cc3sccc3n12	0.1	-0.62
O=C(c1ccccc1)c1cc2c(cc1Br)OCCO2	/	0.18
COc1ccc(/C=N/c2n[nH]c(N)n2)cc1	-0.25	0.44
Cc1cccc(Cl)c1S(=O)(=O)N1CCCN(Cc2ccc(Cl)c(Cl)c2)CC1	/	-1.1
S=C1NCN(CCc2ccccn2)CN1	0.15	0.07
CCOC(=O)c1c(C=O)oc2c(C)cc(OC(=O)c3ccccc3[N+](=O)[O-])c(Br)c12	/	-0.59
O=S(=O)(c1ccc2c(c1)CCO2)N1CCCN(c2c(Cl)cncc2Cl)CC1	-0.55	-0.45
Cn1c(=O)c2c(nc(Oc3ccc4c(c3)OCO4)n2Cc2ccc(F)cc2)n(C)c1=O	0.55	0.46
O=C1NC2(CCCC2)N=C1c1ccccc1	-1.1	6
O=C(Nc1ccc(I)cc1C(=O)NCCN1CCOCC1)c1ccco1	-1.1	-0.04
CCOC(=O)CSc1nc2cc(C(=O)NCCC3=CCCCC3)ccc2c(=O)n1C1CCCCC1	/	-0.17
CC(=O)c1cc2c(N)c(C(=O)c3ccc(Br)cc3)sc2nc1C	/	-0.21
O=C(Cn1nnc2ccccc21)Nc1cc(C(F)(F)F)ccc1Cl	-0.05	/
O=C(O)C1(c2ccccc2)CC1	-0.55	/
CCCCc1c(C#N)c(N)nc2sc(C(=O)c3ccc([N+](=O)[O-])cc3)c(N)c12	/	-0.33
NC(=O)c1cc(C(=O)Cc2ccccc2)c[nH]1	-1.1	-0.22
Nc1ccccc1Sc1c(Cl)cncc1Cl	-1.1	-0.13
COc1cc2c(cc1OC)C(C1=NC(C)(C)Cc3cc(OC)c(OC)cc31)=NC(C)(C)C2	/	0.41
CC/C(=N\N=c1/sc2ccccc2n1C)c1ccc(OC)c(OC)c1	-0.05	/
CCOC(=O)c1cc2c3c(c1)C1C=CCC1C(c1cccc([N+](=O)[O-])c1)N3CC1CC=CC21 (configuration not stated)	/	-0.03
CS(=O)(=O)c1ccc(F)c(NC(=O)CCC(=O)O)c1	/	-0.48
O=C(COc1ccccc1)Nc1sc2c(c1C(=O)Nc1cccc3ccccc13)CCC2	/	-0.05
NC(=O)c1ccc2ccccc2c1	0	7.4
CN(C)c1nc(Sc2ccc(Cl)c(Cl)c2)cc(C(F)(F)F)n1	/	0.16
N#CCCn1cc(C=C(C#N)C#N)c(-c2ccccc2)n1	-0.2	/
CC1CN(CC(=O)Nc2c(Cl)cccc2Cl)CC(C)O1 (configuration not stated)	1.8	/
COc1ccc(C(=O)n2ccc(-c3cccs3)n2)cc1OC	-0.4	-1.1
O=S(=O)(NCc1cc(-c2ccc(Cl)cc2)no1)c1ccc(Cl)cc1	/	-0.68
CCCn1c(SCc2c(C(=O)OCC)oc3ccccc23)nnc1-c1ccncc1	0.4	/
COC(=O)c1ccc2c(=O)n(Cc3ccc(C(=O)NCc4ccccc4OC)cc3)c(=S)[nH]c2c1	/	0.5
CC12c3ccccc3C(c3ccccc31)C1C(=O)N(Cc3cccnc3)C(=O)C12 (configuration not stated)	/	0.12
COc1cc(CSc2nnnn2-c2ccc(C)cc2C)cc(OC)c1OC	0.75	0.53
C=CCSc1nnc(-c2cccnc2)n1Cc1ccccc1	-1.6	-0.98
O=C(COC(=O)c1ccc(S(=O)(=O)C(F)F)cc1)c1ccc2c(c1)OCCO2	0.9	/
CCN(CC)c1ccc(/C=C/C#N)cc1	-0.2	24
Cc1cccc(-c2cc(C(=O)N3CCN(C(=O)c4ccco4)CC3)c3ccc(Cl)c(C)c3n2)c1	2.2	-0.2
Cc1nnc2c(N3CCCC3)nc3ccccc3n12	-0.65	6.6
CC(C)c1ccc(/C=C/C23NC(=O)CCN2c2ccccc2C3(C)C)cc1 (configuration not stated)	/	-0.14
Cc1ccc(C)n1-c1ccc(C(=O)N2CCC(=O)CC2)cc1	-0.15	/
Cc1ccc(Nc2cc(C)nn2-c2ccccc2)cc1	0.9	/
CCC(=O)c1ccc(NC(C)=O)cc1O	-0.05	-0.91
C=CCN1C(=O)c2[nH]nc(-c3ccccc3O)c2C1c1ccc(O)cc1 (configuration not stated)	-0.45	0.02
CC(=O)OCc1cn2ccccc2n1	0.7	7.6
CN(Cc1ccccc1)C(=O)CNS(=O)(=O)c1cccs1	1.8	-0.76
Cc1ccc2c(c1)c1nc3ccccc3nc1n2CC(=O)O	0.8	-1.1
CCOC(CNC(=O)c1ccc2c(c1)nc(C)n2-c1ccc(OCc2ccccc2)cc1)OCC	/	-0.065
COc1ccc(S(=O)(=O)NC(C)C(N)=O)cc1 (configuration not stated)	-0.2	0.48
O=C1N=c2ccc([N+](=O)[O-])cc2=C1c1sc(=S)n(Cc2ccc(Cl)cc2)c1O	/	0.12
CC1CC(O)(c2ccccc2)C(C)CN1C (configuration not stated)	1.6	0.11
CCN1C(=S)SC(=O)C1=C1C=C(C)N(Cc2ccco2)C(C)=C1	1.9	/
COC(=O)c1cc2sccc2n1C(C)C(=O)N(C)c1ccc(F)cc1 (configuration not stated)	-0.45	0.27
Cc1ccc2nc(S/C=C/C(=O)c3ccccc3)[nH]c2c1	0.8	-0.68
CN(C)CCNC(=O)c1cc(-c2ccccc2)nc2ccccc12	0.4	33
COc1cc(NS(=O)(=O)c2cc(C)c(Cl)cc2C)c(C(=O)O)cc1OC	-0.05	1
COc1ccc(C(Nc2ncnc3c2ncn3C2CC=C(CO)CC2)(c2ccccc2)c2ccccc2)cc1 (configuration not stated)	/	-0.28
Cc1cc(NS(=O)(=O)c2ccc3c(c2)CC(=O)N3)ccc1Br	0.1	0.78
Cc1cc(C)c(CCOC(=O)NNC(=O)C(C)Sc2ccc(Cl)cc2)c(C)c1 (configuration not stated)	/	-0.62
O=C(Nc1ccccc1O)c1cccc(S(=O)(=O)Nc2ccccc2O)c1	-0.6	/
O=C(O)c1c2c(nc3ccccc13)-c1ccccc1CC2	0.2	/

Laid out differently: entries from further up
CC1CC(O)(c2ccccc2)C(C)CN1C (configuration not stated)
  AID504770: 1.6
  Ba CapD inh: 0.11

CCN1C(=S)SC(=O)C1=C1C=C(C)N(Cc2ccco2)C(C)=C1
  AID504770: 1.9
  Ba CapD inh: /

(next part)
SMILES	AID504770	Ba CapD inh
O/N=C1\CCCc2c1nc(-c1ccccc1Cl)n2O	-1.1	0.67
COC(=O)C1SC2(C(F)(F)F)CC1(O)c1c(c(OC)c3occc3c1OC)O2 (configuration not stated)	-0.8	0.59
CCOC(=O)c1ccc(Cn2c3cc([N+](=O)[O-])ccc3c3nn4cc(-c5ccc(Br)cc5)nc4nc32)o1	/	-0.53
Cn1ccccc1=S	0.95	/

Arranged by count of non-hydrogen atoms (highest first): part of the list above.
SMILES	AID504770	Ba CapD inh
COc1ccc(C(Nc2ncnc3c2ncn3C2CC=C(CO)CC2)(c2ccccc2)c2ccccc2)cc1 (configuration not stated)	/	-0.28
Cc1cc(C)c(CCOC(=O)NNC(=O)C(C)Sc2ccc(Cl)cc2)c(C)c1 (configuration not stated)	/	-0.62
O=C(Nc1ccccc1O)c1cccc(S(=O)(=O)Nc2ccccc2O)c1	-0.6	/
Cc1cc(NS(=O)(=O)c2ccc3c(c2)CC(=O)N3)ccc1Br	0.1	0.78
O=C(O)c1c2c(nc3ccccc13)-c1ccccc1CC2	0.2	/
O/N=C1\CCCc2c1nc(-c1ccccc1Cl)n2O	-1.1	0.67
Cn1ccccc1=S	0.95	/

Some of the compounds tested; count on the stated rates, not on these rows.
